D2 PAM – potentiates the human D2 dopamine receptor allosterically. DiscoveRx D2 beta-arrestin cells, luminescence, 90 min; 100% = 57 uM dopamine signal. potentiation, % (no concentration beside the values). 0.23% of 360,000 active; active = potentiation of 50% or more; inconclusive = 30% to 50%; inactive = 30% or less;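 also: compound concentration not given in the record; tested on top of an EC20 dose of dopamine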
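PathHunter beta-arrestin assay in DiscoveRx D2 cells. Compounds were added with an EC20 of dopamine (50 nM final) for 90 min at 37 deg C. Luminescence was read 1 h after detection reagent, with 57 uM dopamine as the EC100 control.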
PINK1 modulator – modulators of PINK1 expression | PINK1 immunofluorescence, high-content cytometry, 24 h | Potency, µM (titrated, usually from 76.6 µM), inactives show at the top dose activation (PINK1 increase), usual class: activators | 0.2% of 410,000 active; active = well fitted activation curve with a large enough effect; inconclusive = small, poorly fitted or top-dose-only effect; inactive = flat fitted curve, though single readings scatter; cell line not stated here;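 also: potency is read from the fitted curve at half-maximal effect; % of control where 0% means no effect; nearly all actives have a fitted effect of over 65% in size; a mitochondrial uncoupler was the plate control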
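PINK1 protein, normally rapidly degraded, was detected by immunofluorescence after 24 hour compound treatment of a stable cell line. Titration data (5 concentrations) came from laser-scanning cytometry, with CCCP-treated wells as controls.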
D2 agonist – agonists of human D2 dopamine receptor (beta-arrestin) | P14416 | activation, % (test concentration not listed) | 0.084% of 360,000 active | DiscoveRx PathHunter D2 beta-arrestin, luminescence, 90 min; 100% = 57 uM dopamine signal; in the data active = activation above about 40%; inconclusive = about 15% to 40%; inactive = below about 15%; also: compound concentration not given in the record; the text of the record calls up to 30% inactive
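Agonist mode: compounds alone added to overnight-plated D2 PathHunter cells for 90 min at 37 C, with 57 uM final dopamine (EC100) defining full response. Beta-arrestin recruitment detected by chemiluminescent reagent, read after 1 h at ambient temperature.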
Six1-Eya2 inh – Six1/Eya2 interaction inhibition. activity change, % (test concentration not listed). AlphaScreen GST-Six1/His-Eya2 binding, biochemical; stronger effect = lower value; control for the full effect not named in the record. AID 651725. 0.56% of 360,000 active; in the data active = activity change below about -65%; inconclusive = about -30% to -65%; inactive = above about -30%; also: % is scaled to controls: 0 for no effect and ±100 for the full control effect; compound concentration not given in the record
Target sequence (O00167 whole entry, looked up): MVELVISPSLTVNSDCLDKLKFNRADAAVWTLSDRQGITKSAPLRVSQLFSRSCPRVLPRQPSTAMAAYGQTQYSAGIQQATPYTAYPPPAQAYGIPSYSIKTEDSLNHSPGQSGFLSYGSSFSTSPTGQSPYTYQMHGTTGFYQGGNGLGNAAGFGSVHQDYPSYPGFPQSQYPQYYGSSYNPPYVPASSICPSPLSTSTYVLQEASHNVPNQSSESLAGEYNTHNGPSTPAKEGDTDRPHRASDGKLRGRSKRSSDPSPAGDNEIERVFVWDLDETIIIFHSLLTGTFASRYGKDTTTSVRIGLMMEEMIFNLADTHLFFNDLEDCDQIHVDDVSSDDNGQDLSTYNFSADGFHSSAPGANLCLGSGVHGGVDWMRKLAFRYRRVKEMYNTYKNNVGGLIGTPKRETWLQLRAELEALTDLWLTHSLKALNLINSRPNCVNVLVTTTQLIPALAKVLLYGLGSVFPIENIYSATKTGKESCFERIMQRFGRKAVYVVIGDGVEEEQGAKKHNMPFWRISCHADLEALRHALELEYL
Target sequence (Q15475 whole entry, looked up): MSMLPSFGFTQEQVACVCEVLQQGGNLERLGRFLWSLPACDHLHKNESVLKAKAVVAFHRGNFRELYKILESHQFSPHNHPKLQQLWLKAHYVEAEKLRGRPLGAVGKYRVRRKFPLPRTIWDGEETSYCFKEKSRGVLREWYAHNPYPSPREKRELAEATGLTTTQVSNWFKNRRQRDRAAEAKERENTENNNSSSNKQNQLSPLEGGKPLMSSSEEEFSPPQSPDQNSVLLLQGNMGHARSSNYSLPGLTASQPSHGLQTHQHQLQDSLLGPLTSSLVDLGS
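AlphaScreen with GST-Six1 and His-Eya2 (5X mix: 250 nM and 500 nM), glutathione donor and nickel acceptor beads; buffer 50 mM Tris pH 8.0, 300 mM NaCl, 1 mM TCEP; 1 h at 37 C in the dark.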
CtBP-E1A blk – CtBP/E1A binding inhibition | AID 651724 | activity change, % (concentration not given with the values) | AlphaScreen GST-E1A/His-CtBP binding, 1536-well; stronger effect = lower value; control for the full effect not named in the record | 0.49% of 340,000 active; in the data active means activity change below about -65%; inconclusive means about -30% to -65%; inactive means above about -30%; also: % is scaled to controls: 0 for no effect and ±100 for the full control effect
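GST-E1A and His-tagged CtBP (125 nM each as 5X stock) were preincubated with pin-transferred compound for 2 h at 37 °C in the dark, then glutathione donor and nickel acceptor beads were added for 1 h before AlphaScreen reading.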
Sfp inh – inhibitors of Bacillus subtilis Sfp phosphopantetheinyl transferase | Q9F4F7 | Biochemical Sfp PPTase activity, qHTS | Potency, µM, for inactives: max response, negative = inhibition, actives largely listed as inhibitors | 3.5% of 310,000 active; active = well fitted inhibition curve with a large enough effect; inconclusive = small, poorly fitted or top-dose-only effect, or another doubt; inactive = no such curve, though single readings can be large or run the other way;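 also: the enzyme is Sfp with the accession as filed and its product quenches rhodamine fluorescence; potency is read from the fitted curve at half-maximal effect; 0% = enzyme reaction without inhibitor and -100% = no enzyme wells; top concentration of the series not given in the record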
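Fluorescence-quenching assay: 15 nM Sfp-PPTase preincubated 15 min at room temperature with compound, then 5 uM rhodamine-CoA and 12.5 uM BHQ-2-labelled YbbR peptide added. Fluorescence (ex 525/em 598 nm) read at start and after 30 min; difference gives rate.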
TRPV1 PAM – human TRPV1 potentiation; Q8NER1; TRPV1-expressing cells, Fluo-8 calcium influx, capsaicin EC20 potentiation; host cell line not named in the record; control for the full effect not named in the record; potentiation, % at 8.33 µM; 0.02% of 320,000 active; AID 540277; active means potentiation above 80%; inconclusive means 30% to 80%; inactive means below 30%; also: 0% is about no effect
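Fluo-8 calcium influx in TRPV1-expressing cells, kinetic read (ex 480/em 520 nm). Compound added and read 3 min for agonist activity, followed by capsaicin at EC20 final and 2 min further read for enhancement.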
* marks the source's active call; other numbers are inactive results; ? = inconclusive; · = not tested or not shown; & = joins results of further samples; [ ] = dose if it differs, or a comment. The order is random; overall some 3.7% were active at least once.

Order of results – D2 PAM	PINK1 modulator	D2 agonist	Six1-Eya2 inh	CtBP-E1A blk	Sfp inh	TRPV1 PAM
> O=C(Nc1ncccc1O)c1cc2ccccc2o1
  -6	0.8%	-0.2	-13	-7	·	-12
> Cc1cnc(C)c(N2CCC(C(=O)NCc3cccs3)CC2)n1
  2	3.5%	-0.5	17	31	9%	-8
> O=C(NCCCN1CCOCC1)C(=O)N/N=C/c1c(Cl)cccc1Cl
  4	2.7%	0.3	7	0	20%	4
> CCN(CC)S(=O)(=O)c1ccc(C(=O)NC(=S)N(CCC#N)Cc2cccnc2)cc1
  -10	0.8%	-5.3	2	7	-23%	-4
> CCN(CC)S(=O)(=O)c1ccc(N2CCCC2)c(NC(=O)Cc2ccccc2)c1
  -3	-0.1%	-2.0	-3	6	6%	9
> CCOC(=O)/C=C/C(=O)Nc1cc(S(=O)(=O)Nc2ccc(OC)cc2)ccc1N1CCOCC1
  -4	1.4%	0.6	5	-2	·	-14
> CCCOc1ccc(/C=C/C(=O)N2CCOCC2)cc1
  -2	1.6%	-1.4	5	7	4%	-8
> O=C(NCc1ccco1)c1ccc(=O)[nH]n1
  -10	1.6%	-3.2	-3	6	?	-5
> CCC(C)(C)NC(=O)C(c1ccc(C)cc1)N(Cc1ccco1)C(=O)CCC(=O)Nc1nccs1 (stereo not given)
  -10	2.6%	1.6	10	5	-4%	-6
> CC(C)(C)c1nc2sc3c(c2c(=O)o1)CCCC3
  1	-1.2%	-0.5	6	0	-7%	-16
> COc1ccccc1Cn1c(-c2ccccc2OC)nc2ccccc21
  -10	-0.6%	-2.1	-3	7	-6%	-10
> CSC(=Nc1ccccc1)N=C(SCc1ccccc1)N(C)C
  -32	-6.9%	-4.6	10	-6	·	·
> CCCCn1c(=O)nc2n(-c3ccc(Cl)cc3)c3ccccc3cc-2c1=O
  -9	?	-3.4	0	14	-28%	12
> Cn1cccc1/C=N/NC(=O)C12CC3CC(CC(C3)C1)C2
  -30	1.1%	-1.7	1	4	9%	-3
> CCOC(=O)N1CCN(CC(=O)Nc2c(C(=O)OC)[nH]c3ccccc23)CC1
  17	·	7.2	-2	4	-7%	-20
> CCOc1ccc(/C(O)=C2/C(=O)C(=O)N(CCOCCO)C2c2ccccc2)cc1 (stereo not given)
  -8	-2.2%	-1.4	11	-2	10%	6
> Cc1nn(C)c(Oc2ccccc2)c1CCNS(=O)(=O)c1ccccc1
  8	0.5%	-3.7	0	-11	2%	-5
> COCCn1c(C)cc(C(=O)CSc2ccc(NC(C)=O)cc2)c1C
  -7	-2.9%	-1.3	-6	-9	-4%	-16
> Cc1ccc(NC(=O)C2CCN(S(=O)(=O)c3ccc4c(c3)OCCO4)CC2)nc1
  3	-6.2%	-4.4	4	-21	·	7
> CCC(OC(=O)CN1C(=O)C(=O)c2ccccc21)C(=O)Nc1ccc(S(N)(=O)=O)cc1 (stereo not given)
  -7	-0.5%	-5.5	4	-2	-3%	11
> CCCc1cc(=O)oc2c(C)c(OCC(=O)N3CCC(C(=O)O)(c4ccccc4)CC3)ccc12
  6	-1.0%	4.8	-27	-23	22%	8
> Cc1nc2ncnn2c(N2CCN(C(=O)Cc3cccs3)CC2)c1C
  -4	2.9%[38.3 µM]	2.3	-3	-4	2%	19
> CCOc1cc(/C=N/O)cc(Br)c1OCC(=O)NCc1ccccc1
  -4	-1.1%	-2.4	-12	-15	-9%	-5
> O=[N+]([O-])c1cccc2ccc(/C=C/c3ccc(F)cc3)nc12
  -27	-0.2%	3.4	?	7	2%	8
> OCc1cccc[n+]1CCc1ccccc1
  1	-1.5%	1.6	0	2	·	·
> CCCCC[n+]1ccn(C2=C([O-])c3ccccc3C(=O)/C2=N\S(=O)(=O)c2ccccc2)c1
  19	0.8%	8.1	-5	-12	-2%	-17
> COC(=O)c1ccccc1-c1c2ccc(=N)cc-2oc2cc(N)ccc12
  -15	40µM*	-16	17	7	·	-5
> Cc1ccc(-c2nnc(SCc3nc(N)nc(Nc4ccccc4C)n3)n2N)cc1
  14	-0.4%	-1.5	-13	3	3%	0
> O=[N+]([O-])c1ccc(N(c2ccccc2)c2ccccc2)cc1
  -34	0.6%	-1.8	95	81	1%	-9
> Cc1cc(C)n(CC(=O)NNC(=O)c2ccc(OC(F)(F)F)cc2)n1
  -5	-0.2%	3.6	-12	-9	·	·

Individual results from above:
CSC(=Nc1ccccc1)N=C(SCc1ccccc1)N(C)C @ PINK1 modulator = -6.9%
Cc1cnc(C)c(N2CCC(C(=O)NCc3cccs3)CC2)n1 @ CtBP-E1A blk = 31

The results go on.
Order of results – D2 PAM	PINK1 modulator	D2 agonist	Six1-Eya2 inh	CtBP-E1A blk	Sfp inh	TRPV1 PAM
> Cc1cc(C)cc(OCC(=O)Nc2ccc(N3CCN(C(=O)c4ccco4)CC3)cc2)c1
  ?	·	7.4	-6	11	-15%	-20
> NS(=O)(=O)c1ccc(NC(=S)N2CCN(c3ccc(Cl)c(Cl)c3)CC2)cc1
  -26	3.0%	3.0	19	0	-18%	3
> CCOC(Cn1c(-c2ccc(OC)cc2)nc2ccccc21)OCC
  -12	-0.5%	-0.5	1	1	6%	1
> Cn1c(=O)c(S(=O)C2CCCCC2)c(O)c2ccccc21 (stereo not given)
  -12	1.3%	-2.5	1	·	·	·
> CC1CCCC(C)N1c1nnc(NC(=O)c2cc(-c3ccc(Br)cc3)on2)s1 (stereo not given)
  -5	1.2%	-5.8	-1	1	8%	-19
> COc1ccccc1N1CCN(C(=O)c2ccc(Cl)c(S(=O)(=O)N3CCCC3)c2)CC1
  -21	2.9%	0.1	-8	-6	8%	18
> Cc1cc(NC(=O)c2cc(C)on2)n(-c2ccccc2)n1
  4	0.0%	1.8	9	-1	6%	3
> CC(O)(c1cccnc1)c1nc(-c2ccc(S(C)(=O)=O)cc2)cs1 (stereo not given)
  -6	0.6%	-4.8	3	2	·	·
> Nc1cc(C(=O)OCC(=O)N2CCCC2=O)ccc1Cl
  -5	3.1%	1.5	5	7	·	5
> O=C(O)c1ccc(N/N=C2/CCCc3ccccc32)cc1
  -10	0.0%	-1.2	1	·	7%	-6
> O=C(CN(Cc1ccc(Cl)cc1)C(=O)c1csnn1)NCc1ccccc1
  -7	0.6%	-0.3	8	4	6%	3
> C[C@@H]1CN([C@@H](C)CO)C(=O)CCCn2nncc2CO[C@H]1CN(C)Cc1ccc2cccnc2c1
  ·	1.1%	-1.4	1	3	·	·
> Cc1cc(C)c(C#N)c(SCc2ccc(F)cc2)n1
  -6	4.2%	-2.6	9	·	-18%	-8
> Cc1cc(C)n(CC2CC(=O)N(c3ccc(Cl)cc3)C2=O)n1 (stereo not given)
  -7	-1.0%	-0.5	12	-13	19%	-6
> Cc1ccc(-c2nnc(SCC(N)=O)nc2-c2ccc(C)cc2)cc1
  -4	2.5%	0.9	-10	-8	8%	-12
> CCOC(=O)CN(C(=O)COc1nc(C)cc(C)c1C#N)c1cccc(Cl)c1
  -4	-0.8%	-6.9	2	1	-15%	6
> O=C(O)c1ccc(N=Nc2c(O)ccc3ncccc23)cc1
  6	?	4.2	-94*	·	0%	0
> CCOc1ccccc1NC(=O)C1CCN(S(=O)(=O)c2c(C)noc2C)CC1
  -10	0.4%	-2.1	2	-1	18%	-1
> COC(=O)CCNc1n[nH]c(=O)[nH]c1=O
  5	2.3%	-0.7	-4	-13	22%	1
> CCCS(=O)(=O)c1c(S(=O)(=O)CCC)c2c3ccccc3ccn2c1C(=O)OC
  9	-0.3%	-3.3	-9	0	5%	-13
> Cc1ccc2c(c1)N(C(=O)CCC(=O)N1CCOCC1)CC(C)O2 (stereo not given)
  -4	0.7%	-2.7	6	-1	19%	5
> CC1CN(Cc2nc3c(c(=O)n(C)c(=O)n3C)n2CCCc2ccccc2)CC(C)O1 (stereo not given)
  -16	-0.5%	-4.8	-16	-2	·	·
> O=C(COc1ccccc1)NCCc1nc2ccccc2[nH]1
  -10	0.9%	-3.0	-3	5	6%	1
> O=c1[nH]nc(CNc2cccc(C(F)(F)F)c2)c2ccccc12
  -4	5.6%	7.0	0	·	8%	13
> CC(C)c1onc(C(=O)Nc2cccc(Cl)c2)c1[N+](=O)[O-]
  -3	4.0%	14	-2	-1	0%	-14
> COc1cccc(OCC(=O)O/N=C(\N)c2ccncc2)c1
  -6	-0.8%	-3.3	5	4	19%	-6
> CCC(=O)Nc1nc2ccc(NC(C)=O)cc2s1
  -18	-1.1%	1.4	-2	2	5%	7
> Cc1ccc2c(c1)N(C(=O)CCC(=O)Nc1ccccc1Cl)CC(C)O2 (stereo not given)
  -7	-0.1%&-0.1%	-4.6	2	-6	12%	-8
> O=S(=O)(Nc1ccc(S(=O)(=O)N2CCOCC2)cc1)c1ccc(Br)cc1
  3	0.4%	1.4	4	18	15%	26
> COCCNC(=O)C1(C)CCCN(Cc2ccc(OCc3ccccc3)cc2)C1 (stereo not given)
  -4	0.4%	-6.0	-1	3	·	·
> Cc1cc(=O)[nH]c(SCc2nc3ncccn3c2Br)n1
  -4	2.5%[38.3 µM]	0.7	3	3	12%	-6
> N#Cc1c(-c2ccco2)cc(C2CC2)nc1SCC(=O)c1ccccc1
  -13	·	-0.8	1	7	35µM*	11
> COC(=O)c1ccccc1NC(=O)CN1CCC(NC(=O)c2ccccc2C)CC1
  -17	-3.3%	-2.0	1	-4	4%	-13
> CC(=O)NCC(=O)OCC(=O)c1ccc2ccccc2c1
  -21	0.4%	-7.4	-3	-3	15%	1
> CCN(CC)S(=O)(=O)c1ccc2[nH]cc(C(=O)NCCN3CCCCC3C)c(=O)c2c1 (stereo not given)
  -26	1.8%	2.3	-4	1	5%	2
> N#Cc1ccc(COC(=O)c2ccc3c(=O)[nH]c(CN4CCOCC4)nc3c2)cc1
  -9	·	1.6	2	0	3%	23
> CCOC(=O)C1(Cc2cccc(OC)c2)CCCN(CCO)C1 (stereo not given)
  0	1.8%	-4.2	2	6	4%	-1
> CCOC(=O)N1CCN(C(=O)C2CCN(c3ncnc4c3sc3cccc(F)c34)CC2)CC1
  1	0.7%	6.4	-5	-8	-3%	?
> Cc1c(O)c(CN2CCCCC2)cc2c1oc(=O)c1ccccc12
  -52	5.0%	-2.3	1	-2	4%	-8
> C[C@@H](O)[C@H]1O[C@]2(C)CCC[C@H]1O2
  -21	2.6%	-2.1	-4	3	·	-10
> Cn1nnnc1SCC(=O)NNC(=O)c1ccc(Cl)cc1
  -9	1.6%	-3.1	-3	6	20%	3

Assay outcomes (PubChem)
